Vaccinia mCherry: inhibitors of vaccinia virus infection (mCherry reporter signal); AID 720579; Vaccinia virus mCherry reporter infection, fluorescence; about a quarter of the inactives have no number; 310,000 tested, 0.63% active; Potency, µM (top dose mostly 36.5 µM), without a hit: at the highest dose activity change, negative = inhibition, hits mostly inhibitors; active = well fitted inhibition curve with a large enough effect; inconclusive = small, poorly fitted or top-dose-only effect; inactive = no such curve, though single readings can be large or run the other way; tested in A549 cells; note: nearly all actives have a fitted effect of over 35% in size; inactives centre near -10
Vaccinia Venus: inhibitors of vaccinia virus (Venus reporter); AID 720580; Vaccinia virus Venus reporter expression, fluorescence; 330,000 tested, 0.46% active; Potency, µM (series often up to 36.5 µM), inactives show top-dose activity change, negative = inhibition, usual class: inhibitors; active means well fitted inhibition curve with a large enough effect; inconclusive means small, poorly fitted or top-dose-only effect; inactive means no such curve, though single readings can be large or run the other way; tested in A549 cells; note: nearly all actives have a fitted effect of over 30% in size; inactives centre near -10
An asterisk follows results filed as active; i = inactive; ? = inconclusive; / = not tested or not shown; & = joins results of further samples. % is set by controls: 0 for no effect and ±100 for the full control effect; potency is the fitted concentration of half-maximal effect.

SMILES	Vaccinia mCherry	Vaccinia Venus
COc1cccc(/C=N/NC(=O)c2ccccc2N(Cc2ccccc2)S(=O)(=O)c2ccccc2)c1OC	?	-5%
CS(=O)(=O)c1cnc(-c2ccccc2)nc1Oc1ccc(F)cc1	/	7%
CCCCC(=O)NC1(C(F)(F)F)NC(=O)N(Cc2ccccc2)C1=O (configuration not stated)	-4%	-1%
O=C(NCC1CCCO1)c1cc(-c2ccco2)nc2ccccc12 (configuration not stated)	i	-5%
CN1CCN(C(=O)c2ccc3c(c2)N(Cc2cccc(Cl)c2)C(=O)c2ccccc2S3=O)CC1 (configuration not stated)	-12%	-8%
COc1cccc2c(=O)n(CC(=O)NC3CCCC3)ccc12	-8%	-12%
Cc1ccc(C)c(C(=O)COC(=O)c2c(-c3ccccc3)noc2C)c1	-13%	-9%
COc1cc(C2C(C(=O)c3ccco3)=C(O)C(=O)N2CCc2ccccc2)ccc1O (configuration not stated)	i	-18%
O=C(Cc1ccccc1)NN1C(=O)C2C(C1=O)C1C=CC2C12CC2 (configuration not stated)	-2%	-20%
COc1ccc(CCNC(=O)C(=O)NCC2OCCN2S(=O)(=O)c2ccc(OC)c(OC)c2)cc1 (configuration not stated)	-4%	-23%
COC(=O)c1cc(C#N)c(N2CCN(C)CC2)nc1C	-7%	-3%
CC1CN(C(=O)N2CCC(C(=O)NCc3cccs3)CC2)c2ccccc2O1 (configuration not stated)	-4%	-3%
CCC(N1CCOC1=O)S(=O)(=O)c1ccc(C)cc1 (configuration not stated)	-12%	-11%
COc1ccc(OCC(=O)N2CCN(C(=O)c3ccc(OC)cc3)CC2)cc1	4%	5%
COc1ccc(N(CC(=O)NCCSC2CCCCC2)S(=O)(=O)c2ccccc2)cc1OC	-13%	-10%
COCCCNC(=O)CC1C[C@H](C(=O)N2CCCCC2)[C@@]2(CCc3ccccc3)c3[nH]c4ccc(OC)cc4c3CCN2C1=O (some centres not stated)	-24%	-14%
COc1ccc(Oc2ncc(CN3CCN(c4ccccc4)CC3)s2)cc1	-23%	-16%
O=C(Nc1nc2c(c(=O)[nH]1)CCCC2)C1CC1	-23%	-9%
CC1=C(C(=O)Nc2ccccc2C)C(c2ccncc2)n2nc(SCc3ccccc3Cl)nc2N1 (configuration not stated)	4%	-8%
CCC(C)CCN1C(N(C)C)=NC[C@@H]1CC(C)C (some centres not stated)	-16%	-23%
COC(=O)CC1C(=O)NCCN1C(=O)CSc1nnnn1-c1ccc(Cl)cc1 (configuration not stated)	-7%	-28%
CCCCN(CC)CCCNC(=O)CCN1N=C(c2ccc(OC)cc2)CCC1=O	-3%	1%
O=C(CCc1ccccc1Cl)Nc1cccc(S(=O)(=O)N2CCCC2)c1	-8%	-17%
CCn1c(C)nc2cc(C(=O)NNS(=O)(=O)c3c(F)cc(F)c(Cl)c3F)ccc21	-13%	-19%
Cc1ccc(S(=O)(=O)N2CCC(C(=O)OCC(=O)NC3(C#N)CCCCC3)CC2)cc1C	i	-11%
More entries.
SMILES	Vaccinia mCherry	Vaccinia Venus
Cc1cc(N2C3CCC2CC(O)(c2ccc(F)cc2)C3)nc(-c2ccccc2)n1 (configuration not stated)	-27%	-27%
O=C(CN1C(=O)NC2(CCCCC2)C1=O)Nc1ccccc1Cl	-14%	-11%
COc1ccc(-c2nc3ccccc3o2)cc1NC(=O)COc1cc(C)cc(C)c1	-2%	5%
COc1cc(/C=N/Nc2cc(C)nc(NS(=O)(=O)c3ccc(C)cc3)n2)ccc1O	-12%	-21%
COC(=O)c1ccc2nc(-c3ccc(F)cc3)c(CC3CCCCC3)n2c1	-11%	2%
O=C(Nc1ncc([N+](=O)[O-])s1)c1cccc([N+](=O)[O-])c1	?	?
CC1Cc2ccccc2N1S(=O)(=O)c1ccc(Cl)nc1 (configuration not stated)	16µM*	?
Cc1nc(Nc2nc(CSc3ccc(Cl)cc3)cc(=O)[nH]2)nc2ccccc12	-13%	-4%
COc1cc2[nH]c(C(=O)N3CCc4ccccc4C3)cc2c(OC)c1OC	?	-26%
CCOc1ccccc1N1CC(c2nc3ccccc3n2CCCCOc2cc(C)ccc2C)CC1=O (configuration not stated)	-27%	-14%
COc1cccc(C2C3=C(N=c4s/c(=C\c5cccc(O)c5)c(=O)n42)c2ccccc2CC3)c1OC (configuration not stated)	-26%	?
CCOC(=O)C1C2C=CC3(CN(CCc4ccccc4)C(=O)C13)O2 (configuration not stated)	-3%	-7%
Cc1ccc2nc(-c3cccc(NC(=O)c4ccco4)c3)[nH]c2c1	-24%	-15%
CCOC(=O)c1ccc(OCC2c3cc(OC)c(OC)cc3CCN2C(=O)Cc2ccc(OC)c(OC)c2)cc1 (configuration not stated)	4%	-7%
O=C1c2ccccc2C(=O)N1CCCSc1nc2ccccc2o1	/	-16%
CC(=O)OCC[N+](C)(C)C	-12%&-28%&-12%&-18%&-10%	-9%&-7%&-8%&-15%&-6%
COc1cc(C(=O)NCC(=O)N/N=C/c2ccc(OC(=O)c3ccco3)cc2)cc(OC)c1OC	-9%	-1%
COCc1cc(C)nc(N)c1C#N	i	-9%
CCN(CC)C(=O)/C(=C\c1ccc2c(c1)OCO2)NC(=O)c1ccc(Br)cc1	-5%	-5%
Cc1cccc(OCCCN2CCCCCC2)c1	-19%	-13%
Cc1cc(C(=O)OCC(=O)NC2CCCCC2)c(C)o1	-14%	0%
COCCCNC(=O)CN(c1cc(OC)ccc1OC)S(=O)(=O)c1ccccc1	-2%	-4%
COc1ccc(N2CCN(C(=O)c3oc4ccccc4c3C)CC2)cc1	-20%	-7%
Cc1ccc(-c2nnc(NC3CCCCC3)c3ccccc23)cc1S(=O)(=O)N1CCN(C)CC1	?	-12%
O=C(CNS(=O)(=O)c1ccccc1)NCC(=O)OCc1ccc(C(=O)c2ccccc2)cc1	i	-6%

An excerpt of these results, in markdown:
| structure | Vaccinia mCherry | Vaccinia Venus |
| --- | --- | --- |
| COc1cc(/C=N/Nc2cc(C)nc(NS(=O)(=O)c3ccc(C)cc3)n2)ccc1O | -12% | -21% |
| COC(=O)c1ccc2nc(-c3ccc(F)cc3)c(CC3CCCCC3)n2c1 | -11% | 2% |
| O=C(Nc1ncc([N+](=O)[O-])s1)c1cccc([N+](=O)[O-])c1 | ? | ? |
| CC1Cc2ccccc2N1S(=O)(=O)c1ccc(Cl)nc1 (configuration not stated) | 16µM* | ? |
| Cc1nc(Nc2nc(CSc3ccc(Cl)cc3)cc(=O)[nH]2)nc2ccccc12 | -13% | -4% |

Going on with the list.
SMILES	Vaccinia mCherry	Vaccinia Venus
Cc1cc(/C(O)=C2\C(=O)C(=O)N(CCN(C)C)C2c2ccncc2)ccc1OCc1ccccc1 (configuration not stated)	i	-14%
Cc1cc(NC(=O)CCC(=O)N(Cc2cccs2)C(C)(C)C(=O)NC2CCCCC2)no1	1%	-5%
Cc1cc(C)nc(NC2=NCC(=O)N2CCc2c[nH]c3ccccc23)n1	-1%	-8%
Cn1ncc2c(NNC(=O)c3ccccc3Cl)ncnc21	i	-1%
COc1ccc(C(=S)N2CCOCC2)cc1OS(=O)(=O)c1ccccc1[N+](=O)[O-]	i	-29%
COc1ccc(Cl)cc1-n1nnc(-c2nsc(NC(=O)c3ccccc3Cl)n2)c1C	-7%	-5%
Cc1ccc(NC(=O)c2ccccc2Cl)cc1-n1cnnn1	-11%	16%
Oc1ccccc1C=NN=Cc1ccccc1Cl	i	-7%
CNC(=S)/N=C(\Nc1ccc(C)cc1)c1ccccc1	-7%	-8%
COc1cc(CCCN2C(=O)C(=O)NC[C@@H]2CC2CCCCC2)cc(OC)c1OC	i	-7%
COc1ccccc1CCNC(=O)Cn1ccc2cc(S(=O)(=O)N3CCCCC3)ccc21	-9%	-5%
O=C(Nc1ccc(F)cc1)Nc1ccc(N2CCOCC2)c2nonc12	-10%	-1%
O=C(NCCN1CCN(c2ccccc2)CC1)Nc1cccc(Cl)c1	?	-21%
Cc1cccc(OCCSc2nnc(-c3cccs3)o2)c1	-14%	1%
O=[N+]([O-])c1ccc(S(=O)(=O)NN=CCCc2ccccc2)cc1	-14%	-13%
O=C(CN(c1ccccn1)S(=O)(=O)c1ccccc1)N/N=C/c1cccc([N+](=O)[O-])c1	-14%	-9%
Cc1ccc2nc(COc3ccccc3NC(=O)c3ccccc3F)cc(=O)n2c1	-23%	-19%
COc1cccc(-c2nc3ccc(O)cc3c(=O)o2)c1	-23%	-18%
O=C(Nc1ccc(-c2cn3ccccc3n2)cc1)c1cccs1	-14%	-6%
CC(=O)Nc1ccc(S(=O)(=O)NCCSCc2cccc(Cl)c2)cc1	i	-26%
Cc1ccc(C(=O)NCc2ccc3c(c2)OCO3)cc1N1CCCC1=O	i	1%
COCCn1c(N)c(N(Cc2ccccc2)C(=O)Cc2c(Cl)cccc2Cl)c(=O)[nH]c1=O	-5%	-6%
C[C@H]1CCC[C@]2(O[C@@H](CCO)C[C@H](O)[C@H]2O)O1	-15%	-5%
Cc1ccc(-c2cc(C(=O)Nc3ccc(S(=O)(=O)Nc4nc(C)cc(C)n4)cc3)c3ccccc3n2)cc1	-9%	-2%
COc1cc(C(=O)NCC(c2cccnc2)N2CCN(c3ccc(F)cc3)CC2)cc(OC)c1OC (configuration not stated)	-7%&-4%	-22%&-12%

Record cards, from the list above. Values in the order: Vaccinia mCherry, Vaccinia Venus
Results for `COc1ccc(Oc2ncc(CN3CCN(c4ccccc4)CC3)s2)cc1` : -23%, -16%
Results for `CCOc1ccccc1N1CC(c2nc3ccccc3n2CCCCOc2cc(C)ccc2C)CC1=O` (configuration not stated) : -27%, -14%
Results for `O=C(NCCN1CCN(c2ccccc2)CC1)Nc1cccc(Cl)c1` : ?, -21%
Results for `O=C(NCC1CCCO1)c1cc(-c2ccco2)nc2ccccc12` (configuration not stated) : i, -5%

Two compounds drawn at random from the list so far, as already listed:
SMILES	Vaccinia mCherry	Vaccinia Venus
COc1cccc(-c2nc3ccc(O)cc3c(=O)o2)c1	-23%	-18%
Cc1cc(C)nc(NC2=NCC(=O)N2CCc2c[nH]c3ccccc23)n1	-1%	-8%

Remaining list, next part.
SMILES	Vaccinia mCherry	Vaccinia Venus
NC1=NCC(O)=C1c1nc2ccccc2[nH]1	i	-13%
CCc1cccc(CC)c1NC(=O)CNCc1cccs1	-14%	1%
COc1ccc(N2CCN(C(=O)c3cc([N+](=O)[O-])ccc3N3CCN(CCO)CC3)CC2)cc1	i	-17%
C=CCN1CCC23c4c5ccc(O)c4OC2/C(=N/N=C2\CCC4(O)C6Cc7ccc(O)c8c7C4(CCN6CC=C)C2O8)CCC3(O)C1C5 (configuration not stated)	-11%	-19%
CCOc1ccc2c(c1)-c1c(ssc1=S)C(C)(C)N2C(=O)c1ccco1	?	-20%
COC[C@H]1CCCN1c1ccc2c(c1)O[C@H](COCc1ccccc1)CN([C@H](C)c1ccccc1)S2(=O)=O	-13%	-9%
CCOC(=O)c1ccc2[nH]c3ccccc3c2c1	-3%	-6%
NC(=O)C1CCN(S(=O)(=O)c2cccc(S(=O)(=O)N3CCCCC3)c2)CC1	-19%	-8%
Cc1ccc2cccc(NC(=O)c3cccc4c(Cl)cccc34)c2n1	3%	1%
CC(=O)c1ccc2c3c(cccc13)C(=O)N(c1c(C)nn(C)c1C)C2=O	/	-13%
Fc1ccccc1Cn1nnc2c(NCCc3ccccn3)ncnc21	i	-12%
CC(C)=CC(=O)Nc1nc2ccc([N+](=O)[O-])cc2s1	-10%	?
CNC(=S)N(Cc1ccccc1)Cc1cccnc1	-13%	-4%
CCCn1nnnc1NC(=O)COc1ccc(Cl)cc1C	-19%	-16%
CCCc1nc(SCC(=O)Nc2cc(C)on2)c2c(=O)n(C)c(=O)n(C)c2n1	-8%	-16%
O=C(O)Cn1cc(/C=C/[N+](=O)[O-])c2ccccc21	8%	9%
COc1ccccc1CNC(=O)Cn1c(=O)ccc2cc(S(=O)(=O)N3CCCC3)ccc21	6%	6%
COc1ccc(NC(=O)c2cc(CN3C(=O)c4ccccc4C3=O)ccc2OC)cn1	?	-22%
CCOC(=O)C1=C(C)N=C2SCCC(=O)N2C1c1ccc(OCc2ccccc2)c(OC)c1 (configuration not stated)	0%	-4%
CN(c1ccccc1)P(=O)(N1CC1)N1CC1	i	-2%
Cc1cccc(OCC(=O)Nc2nc3ccc([N+](=O)[O-])cc3s2)c1C	-7%	-13%
CC(C(=O)Nc1ccccc1)N(C)CCOc1ccccc1 (configuration not stated)	-7%	8%
O=C(NC1CCN(C(=S)NCc2ccco2)CC1)C12CC3CC(CC(C3)C1)C2	-18%	-12%
O=C(O)C1=C(C(=O)O)C2C=CC1C2	i	-7%
Cc1nc2nc(CSc3ccc(Cl)cc3)cc(=O)n2[nH]1	/	-15%
O=C(N/N=C/c1ccc2cccnc2c1)c1ccco1	-10%	8%
OC(COCc1ccc(Cl)cc1)CN1CCN(c2ccccn2)CC1 (configuration not stated)	0%	-14%
O=C(CCc1nc(-c2ccc(Cl)cc2)no1)NC1CCCCC1	-10%	-6%
O=C(NCC1CCCO1)C1CC(=O)N(c2cccc(Cl)c2)C1 (configuration not stated)	-14%	-12%

Laid out differently: three of the compounds above
> Cc1ccc2cccc(NC(=O)c3cccc4c(Cl)cccc34)c2n1
- Vaccinia mCherry: 3%
- Vaccinia Venus: 1%

> CC(C(=O)Nc1ccccc1)N(C)CCOc1ccccc1 (configuration not stated)
- Vaccinia mCherry: -7%
- Vaccinia Venus: 8%

> CCCn1nnnc1NC(=O)COc1ccc(Cl)cc1C
- Vaccinia mCherry: -19%
- Vaccinia Venus: -16%

Source: PubChem (National Center for Advancing Translational Sciences (NCATS))
